AmpC inh no det: Promiscuous and Specific Inhibitors of AmpC Beta-Lactamase (assay without detergent). P00811. AmpC nitrocefin hydrolysis, absorbance 480 nm, no detergent; potencies from a single point are estimates. Potency, µM (top dose mostly 28.7 µM), without a hit: at the highest dose activity change, negative = inhibition. actives 1.8% (n = 71,000). AID 585, 2007; active = falling curve, for most hits resting on a single point; inconclusive = weak or doubtful change; inactive = flat or rising curve; further: % of control where 0% means no effect; about half of the hits show no inhibition at the top dose; a quarter of the inactives give rising signals
Target sequence (P00811 whole entry, looked up): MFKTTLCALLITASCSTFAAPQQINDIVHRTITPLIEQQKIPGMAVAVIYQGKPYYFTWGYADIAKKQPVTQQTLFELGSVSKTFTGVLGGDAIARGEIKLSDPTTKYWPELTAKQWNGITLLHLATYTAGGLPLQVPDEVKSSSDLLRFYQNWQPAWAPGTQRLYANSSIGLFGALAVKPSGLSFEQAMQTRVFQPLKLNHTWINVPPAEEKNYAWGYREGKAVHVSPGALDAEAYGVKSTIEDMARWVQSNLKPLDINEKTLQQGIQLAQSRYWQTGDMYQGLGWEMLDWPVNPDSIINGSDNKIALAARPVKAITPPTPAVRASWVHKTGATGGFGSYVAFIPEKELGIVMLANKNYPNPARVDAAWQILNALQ
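Enzyme, pH 7.0 phosphate. Compound titrations were pre-incubated with AmpC for 15 min at room temperature before nitrocefin (stock 800 uM) addition; product formation was recorded at 480 nm every 20 s for 4 min.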
* hit, by the source's call; ? = inconclusive; & = joins results of further samples; [ ] = remark or other dose. Potency means the concentration at half of the fitted maximal effect. Only part of the results is shown; count on the stated rates, not on these rows.

SMILES	AmpC inh no det
CCN(CC)CCCn1c(=S)[nH]c2cc(Cl)ccc2c1=O	-6%
O=C(Cn1nc(-c2cccc(Cl)c2)ccc1=O)Nc1cccnc1	21%
COC(=O)c1ccc(-c2n[nH]c(=O)c3ccccc23)cc1	-1%
O=C(CN(c1ccc2c(c1)OCCO2)S(=O)(=O)c1ccccc1)NCC1CCCO1 (stereo unspecified)	39%
CCOC(=O)C1=C(CN2CCC(C)CC2)NC(=O)NC1c1ccc(Cl)cc1 (stereo unspecified)	-4%
CC1=C(Sc2nc3ccccc3[nH]2)C(=O)NC(C)(C)C1	8%
COc1cc(Br)cc2cc(C(=O)N3CCCCC3C)c(=O)oc12 (stereo unspecified)	9%
COC(=O)N1[C@H](C)C=C[C@]1(Cc1ccccc1)C(=O)NCCCNc1ncc(C(F)(F)F)cc1Cl	126%
Nc1cccc(-c2nc3ccccc3[nH]2)c1	-17%
COC(=O)c1ccc(Cn2cnc3c(cnn3-c3ccc(C)c(C)c3)c2=O)o1	96%
CN(C)c1ccc(NC(=O)c2ccc(COc3cccc(Cl)c3)o2)cc1	16%
O=S(=O)(c1ccc2c(c1)OCCO2)N1CCC(c2nc3ccccc3s2)CC1	0%
O=c1[nH]c2ccc(S(=O)(=O)N3CCCCC3)cc2[nH]1	5%
O=C(NC1CCCC1)C(c1ccc(N2CCOCC2)cc1)N(Cc1ccco1)C(=O)c1ccco1 (stereo unspecified)	55%
CC1Cc2nc(SCC(=O)Nc3ccc(F)cc3F)n(C)c(=O)c2S1 (stereo unspecified)	12%
O=C(O)c1nn(-c2ccc(Cl)cc2)c2c1C(=O)c1ccccc1C2=O	1%[5.75 µM]
COc1ccc(N=C2C(=O)Nc3c(C)cccc32)cc1	2%
c1ccc(-n2cnnc2SCc2nc3ccccc3s2)cc1	3%
CC(C)(C)NC(=O)COC(=O)c1snc(C(=O)NC2CCCCC2)c1N	28%
CCN1CCN(C(c2ccccc2OC)c2nnnn2C2CCCCC2)CC1 (stereo unspecified)	17%
O=C(CCn1c(=O)[nH]c2ccsc2c1=O)N1CCc2ccccc2C1	-8%
CCN(CC)C(=O)CN1CCN(c2ncccn2)CC1	3%
Cc1c(C(=O)Nc2ccc(N3CCOCC3)cc2)oc2ccccc12	107%
Nc1ccc2cc3ccccc3cc2c1	2.5µM*
Cc1cc(C(=O)Nc2nnc(C(F)(F)F)s2)no1	-11%

A few values from the entries so far.
COc1cc(Br)cc2cc(C(=O)N3CCCCC3C)c(=O)oc12 (stereo unspecified) in AmpC inh no det = 9%
CCN1CCN(C(c2ccccc2OC)c2nnnn2C2CCCCC2)CC1 (stereo unspecified) in AmpC inh no det = 17%
O=C(NC1CCCC1)C(c1ccc(N2CCOCC2)cc1)N(Cc1ccco1)C(=O)c1ccco1 (stereo unspecified) in AmpC inh no det = 55%
CCOC(=O)C1=C(CN2CCC(C)CC2)NC(=O)NC1c1ccc(Cl)cc1 (stereo unspecified) in AmpC inh no det = -4%
COc1ccc(N=C2C(=O)Nc3c(C)cccc32)cc1 in AmpC inh no det = 2%
CC1=C(Sc2nc3ccccc3[nH]2)C(=O)NC(C)(C)C1 in AmpC inh no det = 8%
O=c1[nH]c2ccc(S(=O)(=O)N3CCCCC3)cc2[nH]1 in AmpC inh no det = 5%

(continued)
SMILES	AmpC inh no det
COc1ccc(N(C)S(=O)(=O)c2cccc(C(=O)NC3=NCCS3)c2)cc1	-4%
COc1cc(NC(=O)c2ccco2)c(OC)cc1NC(=O)CCC(=O)Nc1cccc(C)c1C	123%
Cc1nc(SCC(=O)NCc2ccccc2)c2c(=O)n(C)c(=O)n(C)c2n1	4%
CCCn1c(SCC(=O)Nc2nnc(CC)s2)nc2c1c(=O)n(C)c(=O)n2C	16%
CCC(=O)N1CCc2cc(S(=O)(=O)NCCC(=O)N3CCc4ccccc4C3)ccc21	37%
FC(F)Oc1cccc2cccnc12	0%
O=C(CSc1nnc(CCc2nc3ccccc3[nH]2)n1-c1ccccc1)NCc1ccco1	24%
C#CCOC(=O)[C@H](N)CC(N)=O	7%[5.75 µM]
NC(=O)CC12CC3CC(C1)CC(CC(N)=O)(C3)C2	-7%
CC(C)CCNC(=O)NC(=O)CSc1nnc(-c2ccccc2F)n1N	7%
CCOC(=O)Cc1csc(NC(=O)CSc2nnc(-c3ccc(F)cc3)o2)n1	-5%
COc1ccc(OCCSc2nnnn2C2CCCCC2)cc1	22%
O=C(Cn1c(=O)n(CC2CCCO2)c(=O)c2ccccc21)N1CCN(c2ccccc2)CC1 (stereo unspecified)	50%
S=C1SCN(Cc2ccccn2)CN1Cc1ccco1	5%
O=C1CC(c2ccccc2)CN1C(=O)c1ccccc1 (stereo unspecified)	-4%
O=C(COc1ccccc1Cl)NC(=O)NC1CCCC1	-22%
COc1ccc(-c2nc3scc(-c4ccccc4)n3n2)cc1	-9%
CCCn1c(=O)c2[nH]c(-c3ccc(OCC(=O)Nc4ccc(C#N)cc4)cc3)nc2n(CCC)c1=O	-7%
CCC(C)NC(=O)c1c(N)n(CCCOC)c2nc3ccccc3nc12 (stereo unspecified)	130%
CC(C(=O)NC1CCCC1)N(C(=O)c1snc(C(N)=O)c1N)c1ccc2c(c1)OCCO2 (stereo unspecified)	24%
Cc1ccc(S(=O)(=O)Nc2nc3ccc(S(=O)(=O)N4CCCC4)cc3s2)cc1	?
O=C(CN1C(=O)CSc2ccccc21)N1CCc2ccccc21	-6%
Cc1cc(NC(=O)CCCSc2nc(-c3ccco3)cc(C(F)(F)F)n2)no1	?
Cn1cccc1Cc1nnc(SCC(=O)Nc2ccc3c(c2)OCCO3)n1-c1ccc(F)cc1	95%
CC1CC(C)CN(C(=O)CSCC(=O)Nc2nc(-c3cccs3)cs2)C1 (stereo unspecified)	-10%

Structural class: the entries above containing a CF3 group (three)
SMILES	AmpC inh no det
COC(=O)N1[C@H](C)C=C[C@]1(Cc1ccccc1)C(=O)NCCCNc1ncc(C(F)(F)F)cc1Cl	126%
Cc1cc(C(=O)Nc2nnc(C(F)(F)F)s2)no1	-11%
Cc1cc(NC(=O)CCCSc2nc(-c3ccco3)cc(C(F)(F)F)n2)no1	?

Next part.
SMILES	AmpC inh no det
CN(C)C(=O)N1CCC(C(=O)NCc2ccccc2Cl)CC1	-14%
CN(C)S(=O)(=O)NCc1ccc2c(c1)OCO2	-4%
Cc1csc(SCC(=O)NC(=O)NCc2ccccc2)n1	-20%
COc1ccc(C2CC(c3cccc(OC)c3OC)n3nnnc3N2)cc1 (stereo unspecified)	40%
CN(C)c1ccc(C(=C2C=CC(=[N+](C)C)C=C2)c2c(O)c(S(=O)(=O)O)cc3cc(S(=O)(=O)O)ccc23)cc1	-1%[5.75 µM]
O=C(CN1C2=NCCN2c2ccccc21)c1ccc(Br)cc1	20%
COC(=O)C1(S(=O)(=O)c2ccc(C)cc2)CCOCC1	9%
CCc1nnc(NC(=O)CC(=O)Nc2ccccc2C(=O)O)s1	-10%
Cc1cc(C(=O)NC(C)c2ccncc2)cs1 (stereo unspecified)	-3%
CCCC(CCC)C(=O)O	-9%&-8%
CCOC(=O)c1c(-c2ccccc2)oc2ccc(O)c(CN3CCOCC3)c12	114%
CC(C)(O)C(=O)Nc1ccc([N+](=O)[O-])c(C(F)(F)F)c1	-5%
O=C(CSc1nnc(CNc2ccc(F)cc2)o1)N1CCCc2ccccc21	45%
O=[n+]1c2c(n([O-])c3c1CCC3)CCCC2	-7%
NC(=O)CSc1ncc(-c2ccccc2)[nH]1	1%
COC(=O)CCCC(=O)OC	-7%
CCCNC(=O)c1[nH]c(C)c(C(C)=O)c1C	-10%
COc1ccccc1CNc1nc(-c2ccccc2CN(C)C)nc2ccccc12	57%
CCCNC(=O)C1=C(C)C(=O)OC12CCC(C)CC2 (stereo unspecified)	2%
CN(C)S(=O)(=O)N1CCN(S(=O)(=O)c2ccc(F)cc2)CC1	5%
c1ccc(-c2nn3c(Cn4nnc5ccccc54)nnc3s2)nc1	1%
CC(=O)Oc1cc(C(F)(F)F)ccc1C(=O)O	-9%[12.8 µM]
CC(C)=CCC(C)(C)C1OCCN1C(=O)c1ccccc1 (stereo unspecified)	25%
COc1ccc(NC(=O)c2oc3ccccc3c2NC(=O)c2ccc(OC)c(OC)c2)c(OC)c1	62%
CCOc1cccc(C2c3c(oc4cc(C)c(C)cc4c3=O)C(=O)N2CCCN(C)C)c1 (stereo unspecified)	133%
New compounds follow.
SMILES	AmpC inh no det
O=C(c1ccncc1)N1CCC2(CC1)CCN(c1ccccc1)CC2	59%
CC(=O)Nc1ccc(-c2nc(C)c(C(C)=O)n2O)cc1	0%
O=C(CSc1nnc(-c2ccco2)o1)c1ccc(F)c(F)c1	4%
O=C(O)C1C2CCC(O2)C1C(=O)NCCC1=CCCCC1 (stereo unspecified)	-3%
N#Cc1cc2cc3c(cc2nc1SCC(=O)OC1CCCCC1)OCO3	-11%
O=C(CSc1nnnn1-c1ccccc1)N1CCc2ccccc21	-11%
CC(C)C1N=C2c3ccccc3N=C(SCC(=O)c3ccc(O)c(O)c3)N2C1=O (stereo unspecified)	-22%
O=C(COc1ccc(F)c(Cl)c1)c1ccc[nH]1	-18%
COc1ccc(Cc2nnc(SCC(=O)N3CCc4ccccc4C3)o2)cc1	-7%
COc1ccc(C(=O)N2CCC3(CCN(Cc4nccs4)CC3)CC2)cc1	2%
Cc1[nH]nc2nc3c(c(OC(=O)c4ccccc4)c12)c(=O)n(C)c(=O)n3C	0%
c1ccc(OCCSc2nc3ccccc3o2)cc1	-9%
C=C(C)CSc1nnc([C@H](CCSC)NC(=O)OC(C)(C)C)o1	25%
CSc1nc2oc3c(c2c2nncn12)CC(C)(C)SC3	23%
CCn1c(=NC(=O)CSC(C)=O)sc2cc(OC)ccc21	119%
O=C(COc1ccccc1)N1CCN(S(=O)(=O)Cc2ccccc2)CC1	13%
CCOC(=O)N1CC=C2C(C#N)=C(N)C(C#N)(C#N)[C@H](c3ccc(OC(C)C)c(OCC)c3)[C@H]2C1	45%
O=C1CC(C(=O)NC2CCCCC2)C(c2ccccc2)O1 (stereo unspecified)	9%
CCOC(=O)C1CCN(C(=O)c2c(-c3c(F)cccc3Cl)noc2C)CC1	43%
COc1ccc(C2=NOC(CN3C(=O)c4ccccc4S3(=O)=O)C2)cc1 (stereo unspecified)	2%
O=C(O)COc1nsnc1N1CCOCC1	-7%
CC1(c2ccncc2)Nc2ccccc2-c2nc3ccccc3n21 (stereo unspecified)	-4%
O=S(=O)(NCc1ccc2c(c1)OCO2)c1cnc[nH]1	-19%
Cc1ccc(-c2nn(CC(=O)NCC3CCCO3)c(=O)c3ccccc23)cc1 (stereo unspecified)	60%
COc1ccc(Oc2ncc3nc(-c4cn(C)c5ccccc45)c(=O)n(C4CC4)c3n2)cc1	1%
Cc1ccc(N)cc1[N+](=O)[O-]	-10%
CSCC[C@H](NC(=O)OC(C)(C)C)c1nnc(SCC(=O)Nc2c(C)cccc2C)o1	35%
Cc1c(C(=O)O)nn(-c2ccccc2)c(=O)c1C#N	-11%
O=C(CSc1nc2ccccc2c(=O)n1-c1ccccc1)N1CCN(CCO)CC1	26%

An excerpt of these results, as a markdown table:
| Structure | AmpC inh no det |
| --- | --- |
| O=S(=O)(c1ccc2c(c1)OCCO2)N1CCC(c2nc3ccccc3s2)CC1 | 0% |
| COc1ccc(N(C)S(=O)(=O)c2cccc(C(=O)NC3=NCCS3)c2)cc1 | -4% |
| CCCNC(=O)C1=C(C)C(=O)OC12CCC(C)CC2 (stereo unspecified) | 2% |
| O=C(CN1C2=NCCN2c2ccccc21)c1ccc(Br)cc1 | 20% |

Reprinted at random: 4 entries already listed.
SMILES	AmpC inh no det
O=C(O)C1C2CCC(O2)C1C(=O)NCCC1=CCCCC1 (stereo unspecified)	-3%
Cc1[nH]nc2nc3c(c(OC(=O)c4ccccc4)c12)c(=O)n(C)c(=O)n3C	0%
CCOC(=O)C1CCN(C(=O)c2c(-c3c(F)cccc3Cl)noc2C)CC1	43%
CC1(c2ccncc2)Nc2ccccc2-c2nc3ccccc3n21 (stereo unspecified)	-4%

Bioassay records deposited in PubChem by National Center for Advancing Translational Sciences (NCATS).
